Screening results from PubChem BioAssay.
VDR inhibitor – inhibitors of human vitamin D receptor; Potency, µM, for inactives: max response, negative = inhibition, actives largely listed as inhibitors; P11473; AID 504847; VDR-SRC2-3 peptide fluorescence polarization, 2 h; hit rate 0.93% among 400,000; active = well fitted inhibition curve with a large enough effect; inconclusive = small, poorly fitted or top-dose-only effect, or another doubt; inactive = no such curve, though single readings can be large or run the other way; also: series mostly up to about 120 µM
Target sequence (P11473 whole entry, looked up): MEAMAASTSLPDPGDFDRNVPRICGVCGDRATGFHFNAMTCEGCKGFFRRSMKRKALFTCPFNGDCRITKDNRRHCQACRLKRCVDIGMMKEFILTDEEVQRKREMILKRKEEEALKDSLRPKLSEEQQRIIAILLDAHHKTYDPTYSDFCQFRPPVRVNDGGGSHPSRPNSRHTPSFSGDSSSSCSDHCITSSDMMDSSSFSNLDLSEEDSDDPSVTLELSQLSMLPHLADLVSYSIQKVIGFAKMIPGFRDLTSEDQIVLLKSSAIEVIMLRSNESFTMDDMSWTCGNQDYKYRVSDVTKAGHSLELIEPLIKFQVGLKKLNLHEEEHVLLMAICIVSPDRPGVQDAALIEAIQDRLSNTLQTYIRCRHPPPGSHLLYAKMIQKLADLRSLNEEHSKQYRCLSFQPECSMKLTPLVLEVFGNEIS
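Fluorescence polarization assay measuring small-molecule disruption of VDR binding to the coregulator peptide SRC2-3. Compounds were pin-transferred (23 nl) into the reagent mix and incubated 2 h at room temperature before reading.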
Active calls of the source: *; ? = inconclusive; & = joins results of further samples; [ ] = dose if it differs, or a comment. % is scaled to controls: 0 for no effect and ±100 for the full control effect; potency is read from the fitted curve at half-maximal effect.

canonical_smiles,VDR inhibitor
CC1=C(C(=O)Nc2ccc(C)cc2C)C(CC(C)C)n2nc(SCc3ccccc3C)nc2N1 (centres undefined),14%
O=C(COC(=O)c1ccncc1)c1ccccc1,4%
COc1ccc(CCNC(=O)c2cccs2)cc1OC,8%
CCOC(=O)N1CCN(C(=O)C2CCN(S(=O)(=O)c3ccc(C)cc3)CC2)CC1,13%
CCCCC(=O)Nc1ccc2nc(SCC(=O)N3CCCC3)sc2c1,8%
Cc1ccc2c(CN3CCCCC3)cc(=O)oc2c1,21%
O=C(/C=C/c1cccc([N+](=O)[O-])c1)NCCc1ccc(F)cc1,-19%
O=C(NNC(=O)c1cc(Cl)ccc1O)c1ccc(NS(=O)(=O)c2cccs2)cc1,7%
COc1ccccc1C(NC(=O)CC(C)C)c1c(O)ccc2ccccc12 (centres undefined),-10%
CC(=O)Nc1ccc2c(O)cc(S(=O)(=O)O)cc2c1,-5%
CCOc1ccccc1-n1c(SCC(=O)N(C(C)C)C(C)C)nnc1-c1cccnc1,4%
CSc1ccc(CCNC(=O)c2cc3cc4cc(C)ccc4nc3s2)cc1,8%
CCCn1c(SC(C)C(=O)NCC2CCCO2)nc2sc3c(c2c1=O)CCC3 (centres undefined),-3%
C=C1C(=O)C=C[C@]2(C)C[C@@H]3OC(=O)[C@](C)(O)[C@H]3C[C@@H]12,?
CCCn1c(C(C)NS(=O)(=O)c2ccccc2)n[nH]c1=S (centres undefined),6%
Cc1c(NC2=CC(=O)CCC2)c(=O)n(-c2ccccc2)n1C,16%
COc1cc(CNCC2CCCO2)ccc1OCC(N)=O (centres undefined),-13%
COc1cccc2c1cc1c(=O)n(CC(=O)N3CCCCC3)nc(C)n12,-18%
CCN(CC)C(=O)CSc1nc2nc(C)cc(C)c2c(=O)[nH]1,2%
O=C(NCCCn1ccnc1)C1CCN(S(=O)(=O)c2ccc(F)cc2)CC1,-17%
O=C(CNC(=O)c1ccco1)Nc1ccc(OC(F)F)cc1,31%[activator]
CCNC(=O)Cc1ccc(S(=O)(=O)N2CCOCC2)s1,-2%
COc1ccc(/C=C2\SC(=S)N(CCC(=O)Nc3cccc(O)c3)C2=O)cc1OC,-11%
CNC(=O)C1(C(F)(F)F)C/C(=C\CCO)CCCO1 (centres undefined),0%&12%
COc1ccc(C(=O)NCC(=O)OCc2cccc(Br)c2)cc1,-7%
CCCCc1ccc(Nc2ncnc3nc[nH]c23)cc1,-20%
CC(C)N1CCN(C(=O)c2ccc([N+](=O)[O-])cc2)CC1,-12%
CCN(C[C@H]1N[C@@](CC)(C(=O)OC)[C@H]2C(=O)N(Cc3ccccc3)C(=O)[C@@H]12)C(=O)c1ccc(C(C)(C)C)cc1,-9%
CCCN1CNc2c(c(=O)[nH]c(=S)n2CCc2cccc(C)c2C)C1,-9%
CCOc1ccccc1NC(=O)CCC(=O)O,8%
O=C(O)c1cc2c(cc1NC(=O)c1c(F)cccc1F)OCCCO2,3%
COc1ccc(C2CC(=O)c3cnn(-c4nc(C)cc(C)n4)c3C2)cc1 (centres undefined),-19%
Cc1c(CCO)c(=O)n(-c2ccccc2)n1S(=O)(=O)c1c(Cl)cc(Cl)cc1Cl,9%
O=C(CSc1nnc(-c2ccncc2)n1-c1ccc(F)cc1)NC(=O)NCc1ccco1,2%
Cc1ccc(Cl)cc1N1CCN(C(=O)Cn2cnc3sc(C)c(S(=O)(=O)N4CCC(C)CC4)c3c2=O)CC1,-3%
CCC(OC(=O)c1nsc(Cl)c1Cl)C(=O)NCCOC (centres undefined),-25%
O=C(CSc1nnc(Cc2ccccc2)n1-c1ccccc1)N1CCOCC1,-7%
O=C(NCCc1ccccc1)c1ccc(-c2ccccc2C(F)(F)F)o1,?
O=C(CCCN1C(=O)S/C(=C/c2ccccc2)C1=S)Nc1ccc(C(=O)O)cc1,-7%
CN(CCCNC(=O)Cn1cc2c(n1)CCCC2)C1CCCCC1,-1%
COC(=O)[C@]1(C)N[C@H](c2ccc(-c3cccc(Cl)c3)cc2)[C@@H]2C(=O)N(C)C(=O)[C@@H]21,6%
CCCCc1nn2c(=O)cc(COC(=O)CNC(=O)c3ccccc3C)nc2s1,6%
CCC(C)(C)n1nnnc1CN1CCSCC1,12%
Cc1cc(Nc2ccc(C)c(F)c2)n2ncnc2n1,11%
CC(C)N(Cc1ccccc1)S(=O)(=O)N(C)C,-4%
Cc1noc(C)c1C(=O)Nc1nc(-c2ccc([N+](=O)[O-])cc2)cs1,4%
ONC(=Nc1ccccc1)c1ccc(Cl)cc1,5%
O=C(NCc1ccccc1)c1ccc2c(c1)nc1n2CCCCC1,12%
CCOc1cccc2sc(N(CCN(C)C)C(=O)c3cc4ccccc4cc3OC)nc12,13%
Cc1cc(C)cc(NC(=O)c2ccc(CN3CCc4ccccc4C3)cc2)c1,2%
C=C(C)COc1ccc2c(C)c(CC(=O)OC)c(=O)oc2c1C,-4%
CC(C)=CC1C(C(=O)Nc2ccc(Br)cn2)C1(C)C (centres undefined),-7%
O=C(Oc1cc(OC(=O)c2ccccc2)c2c(c1)OC(c1ccc(OC(=O)c3ccccc3)c(OC(=O)c3ccccc3)c1)[C@@H](OC(=O)c1ccccc1)C2)c1ccccc1 (some centres undefined),13%
Cc1ccc2c(C)nc(SC(C(=O)c3ccccc3)c3ccccc3)nc2c1 (centres undefined),-23%
Cc1n[nH]c(C)c1-c1nc2ccccc2[nH]1,1%
O=c1[nH]c(SCCOc2ccccc2F)nc2ccccc12,0%

Next structures follow:
canonical_smiles,VDR inhibitor
CC(C)NC(=O)CN(C(=O)CCC(=O)Nc1nccs1)c1ccc2c(c1)OCO2,-6%
COc1ccc(CCNC(=O)CSc2cn(Cc3ccccc3)c3ccccc23)cc1OC,-15%
CCOC(=O)C1=C(C)N(CCCC(=O)O)C(=O)NC1c1ccc(OC)cc1 (centres undefined),19%
Cc1ccc(C(=O)N/N=C(/CC(=O)c2cccs2)C(F)(F)F)cc1,-7%
O=S(=O)(NC(CO)Cc1ccccc1)c1cc(Cl)ccc1F (centres undefined),-7%
C/C(=N\O)C(C)NC(=O)c1ccccc1 (centres undefined),-12%
CCOc1ccc(CCNC(=O)c2cccc(S(=O)(=O)N3CCCCC3)c2)cc1OCC,1%
COC(=O)n1c(=O)oc2ccccc21,0%
c1ccc(CCc2nn3c(Cn4nnc5ccccc54)nnc3s2)cc1,?
C=C(Br)Cn1c(CC(C)C)nc2ccccc21,-10%
CCCCOC(=O)c1cccc(NC(=O)CCC(=O)O)c1,-11%
Cc1nnsc1C(=O)N1CCC(CO)(Cc2ccccc2Cl)CC1,11%
CS(=O)(=O)N(CC(=O)O)c1cc(Cl)cc(Cl)c1,-2%
CCOC(=O)c1c(C)oc2nc(C)nc(N3CCN(c4cccc(C(F)(F)F)c4)CC3)c12,0%
CCOC(=O)C1CCCCN1S(=O)(=O)c1csc(C(N)=O)c1 (centres undefined),10%
O=C(NN1C(=O)/C(=C/c2cccc(O)c2)SC1=S)c1ccccc1O,-3%
CCn1c2ccc(OC)cc2c2nc3ccccc3nc21,4%
CCn1c(/C=C2/C(=O)N(C)c3ccccc32)nc2ccccc2c1=O,-10%
CCc1ccc(Nc2nnc(SCC(=O)c3c(N)n(C4CC4)c(=O)[nH]c3=O)s2)cc1,23%
O=C(COc1ccccc1[N+](=O)[O-])Nc1cc(C(=O)O)cc(C(=O)O)c1,10%
CCOc1ccc(S(=O)(=O)NCCC(=O)OCC(=O)NC(=O)c2cccn2C)cc1,-2%
COc1ccccc1-c1noc(-c2ccccc2C(=O)NCc2ccco2)n1,12%
Cc1ccc(-n2nc(C)c3c(C)cc(=O)n(CC(=O)N4CCCc5ccccc54)c32)cc1,-5%
CCOc1ccc(C(=O)Nc2nnc(S(=O)(=O)Nc3ccccc3)s2)cc1,20%
COc1ccccc1C(=O)N1CCC(C(=O)c2ccc(F)cc2)CC1,5%
Cn1nnnc1SCCNCc1cc(Cl)ccc1OCc1ccccc1,12%
O=C(Nc1ccc(Cl)cc1)C1CCCC1,-8%
COc1cccc(C(C(=O)NC2CCCCC2)N(C(=O)c2ccccn2)c2cccnc2)c1 (centres undefined),-6%
C[C@]12c3[nH]c4cc(-c5ccco5)ccc4c3CCN1C(=O)[C@@H](CC(=O)NCCC1=CCCCC1)C[C@@H]2C(=O)N1CCOCC1,0%
CCOc1ccc2c(c1)c1nnc(SCC(=O)N3CCCCC3C)nc1n2C (centres undefined),-9%
CC(C)c1ccc(Nc2nc(CC(=O)O)cs2)cc1,-12%
O=C(NCC1CCCO1)C12CN(Cc3ccccc3)CC1C(c1cccc([N+](=O)[O-])c1)=NO2 (centres undefined),2%
NC1=NC(=Nc2ccc(Cl)cc2)c2ccccc21,-30%
Cc1cccc(N2O[C@H]3C=CC2CCCC3)n1,9%
CCCC1=Nc2cc(C(=O)N3CCN(c4ccccn4)CC3)ccc2Sc2ccc(C)cc21,-3%
CCCC(=O)NC(=S)Nc1cccc(NC(=O)c2ccc(Cl)cc2Cl)c1,-6%
O=C(COC(=O)COc1ccccc1Cl)Nc1ccccc1OC(F)F,-18%
Cc1ccc(C(=O)NCCNc2ncc(C(F)(F)F)cc2Cl)cc1[N+](=O)[O-],-2%
O=S(=O)(c1ccc(-c2nc3ccccc3s2)cc1)N1CCCC1,3%
Cc1ccc(F)cc1CNC(=O)C1CCC(=O)N(CCCN2CCCC2=O)C1 (centres undefined),-5%

4 entries already listed, sorted by their value in VDR inhibitor, high to low:
canonical_smiles	VDR inhibitor
Cc1cccc(N2O[C@H]3C=CC2CCCC3)n1	9%
O=S(=O)(c1ccc(-c2nc3ccccc3s2)cc1)N1CCCC1	3%
Cc1ccc(C(=O)NCCNc2ncc(C(F)(F)F)cc2Cl)cc1[N+](=O)[O-]	-2%
O=C(COC(=O)COc1ccccc1Cl)Nc1ccccc1OC(F)F	-18%

An excerpt from above in order of molecular weight, highest first.
canonical_smiles,VDR inhibitor
CCCC1=Nc2cc(C(=O)N3CCN(c4ccccn4)CC3)ccc2Sc2ccc(C)cc21,-3%
O=C(NCC1CCCO1)C12CN(Cc3ccccc3)CC1C(c1cccc([N+](=O)[O-])c1)=NO2 (centres undefined),2%
Cc1ccc(C(=O)NCCNc2ncc(C(F)(F)F)cc2Cl)cc1[N+](=O)[O-],-2%
Cc1ccc(F)cc1CNC(=O)C1CCC(=O)N(CCCN2CCCC2=O)C1 (centres undefined),-5%
O=C(COC(=O)COc1ccccc1Cl)Nc1ccccc1OC(F)F,-18%
O=S(=O)(c1ccc(-c2nc3ccccc3s2)cc1)N1CCCC1,3%
Cc1cccc(N2O[C@H]3C=CC2CCCC3)n1,9%

Other entries follow.
canonical_smiles,VDR inhibitor
CC1=C(C(=O)OCC2CCCO2)C(c2ccc(Cl)c(Cl)c2)NC(=O)N1 (centres undefined),11%
CCN(CC)CC(=O)c1c(N)n(Cc2ccccc2)c(=O)n(C)c1=O,-4%
N#Cc1nc(-c2ccc(F)cc2)oc1N1CCCC1,-18%
O=C(CN1C(=O)C2C3C=CC(C3)C2C1=O)NCCc1ccccc1Cl (centres undefined),-12%
CCOC(=O)c1cnc(SCc2ccccc2)nc1N,0%
CC(Nc1nc2ccccc2n2cnnc12)c1ccccc1 (centres undefined),6%
CCOCCCNS(=O)(=O)c1ccccc1,-5%
COc1ccccc1N1CCN(/N=C/C=C\c2ccco2)CC1,-9%
CCC(=O)N(CCC(c1ccccc1)c1ccc2c(c1)OCO2)Cc1ccc(OC(C)C)cc1 (centres undefined),-17%
CCOC(=O)Nc1ccc2c(c1)N(C(=O)CCN1CCN(C)CC1)c1ccccc1S2,-1%
Cc1ccc(S(=O)(=O)N2CCOCC2)cc1C(=O)OCC(=O)Nc1ccc2[nH]c(=O)[nH]c2c1,3%
S=c1[nH]nc(-c2ccc(Cl)cc2Cl)n1-c1ccccc1,-19%
CSCCC(NC(=O)c1ccco1)C(=O)Nc1ccncc1 (centres undefined),1%
Cc1cccc(Oc2nc(-c3ccncc3)nc3ccccc23)c1,3%
OCCN1CCN(c2ncnc3c2c(-c2ccccc2)cn3-c2ccc(F)cc2)CC1,-4%
CCSc1nnc(CNC(=O)C23CC4CC(CC(C4)C2)C3)n1C1CCCCC1,-12%
COc1ccc(-c2cc3ncccc3cn2)cc1,6%
FC(F)(F)c1ccc(N2CCN(c3cc(-c4ccccc4)nc4ncnn34)CC2)nc1,-4%
CCCCC[C@H](O)/C=C/[C@H]1[C@H](O)CC(O)[C@@H]1C/C=C\CCCC(=O)O (some centres undefined),5%
COc1ccc(CCNC(=O)C(=O)NCC2OCCN2S(=O)(=O)c2cccs2)cc1OC (centres undefined),-19%
COc1ccc(NS(=O)(=O)c2ccc(NC(=O)c3ccc(N(C)S(C)(=O)=O)cc3)cc2)c(OC)c1,6%
CCOc1ccccc1OCC(=O)OC(C)C(=O)Nc1ncc(Cl)cc1Cl (centres undefined),0%
Cc1cc(C)cc(N2C(=O)CC(n3nc(C)cc3C)C2=O)c1 (centres undefined),-8%
CCSc1sc(CC)cc1C=O,4%
CCOC(=O)c1oc2ccccc2c1CN1CCN(c2ccccc2)CC1,7%

An excerpt (hit frequency here may not be typical).
